KCNQ2 block: KCNQ2 channel blockers in CHO-K1 cells – cell-based, FluxOR thallium flux, B-score, primary screen (AID 2156); B-score at 10 µM; hit rate 1.1% among 310,000; O88943; 20 min; hits give low values; only compounds with negative scores are shown here; some inactives read as strong as hits;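 active means fluorescence ratio B-score at most minus 3 library SDs, with starting brightness B-score within 2 library SDs, cut at about -5.5 in these data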
Target sequence (O88943 whole entry, looked up): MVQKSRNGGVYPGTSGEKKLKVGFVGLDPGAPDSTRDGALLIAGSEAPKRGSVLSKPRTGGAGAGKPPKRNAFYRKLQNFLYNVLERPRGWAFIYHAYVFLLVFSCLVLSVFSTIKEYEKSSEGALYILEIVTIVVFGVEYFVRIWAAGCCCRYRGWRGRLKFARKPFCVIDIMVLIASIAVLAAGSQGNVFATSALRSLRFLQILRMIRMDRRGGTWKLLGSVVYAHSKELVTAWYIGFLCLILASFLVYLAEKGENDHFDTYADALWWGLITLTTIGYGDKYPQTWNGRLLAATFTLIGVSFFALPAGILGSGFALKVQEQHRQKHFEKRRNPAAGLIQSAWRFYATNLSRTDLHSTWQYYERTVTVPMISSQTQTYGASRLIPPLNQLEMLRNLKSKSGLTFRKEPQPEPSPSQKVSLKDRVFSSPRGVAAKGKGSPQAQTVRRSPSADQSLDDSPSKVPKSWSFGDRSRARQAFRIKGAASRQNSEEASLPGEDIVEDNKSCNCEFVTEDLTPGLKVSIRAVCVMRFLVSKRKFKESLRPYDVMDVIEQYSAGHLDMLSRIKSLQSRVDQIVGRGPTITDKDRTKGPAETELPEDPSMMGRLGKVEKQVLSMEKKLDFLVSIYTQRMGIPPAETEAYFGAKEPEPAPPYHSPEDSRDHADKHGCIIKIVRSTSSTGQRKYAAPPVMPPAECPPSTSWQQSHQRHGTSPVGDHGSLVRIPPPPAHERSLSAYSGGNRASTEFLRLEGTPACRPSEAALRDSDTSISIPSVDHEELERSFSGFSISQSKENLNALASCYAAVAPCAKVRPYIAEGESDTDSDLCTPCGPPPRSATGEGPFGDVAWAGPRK
KCNQ2 block baseline: also measured in KCNQ2 block; calls as there; B-score; measured here: initial fluorescence intensity artifact check;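 brightness before thallium and not channel activity; 0 = typical well and far values either way flag optical interference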
Active calls of the source: *; i = inactive. Not all compounds are listed, so the mix of outcomes need not match the whole.

SMILES	KCNQ2 block	KCNQ2 block baseline
O=C(Nc1ccccc1F)C1CCCN1S(=O)(=O)c1cccc2nsnc12 (stereo not drawn)	i	-0.09
Cc1nc2ncnn2c(C)c1Cc1cccc(F)c1	i	-1.4
CCOC(=O)CSc1nnc(-c2cccc(Br)c2)o1	i	-0.7
COc1ccc(NC(=O)CSCC(=O)N2c3ccccc3CCc3ccccc32)cc1	i	0.05
Cc1cccnc1NC(=O)C(C)N1C(=O)c2ccccc2C1=O (stereo not drawn)	i	-0.29
O=C(Cn1cccc1C(=O)c1ccccc1)NCc1ccccc1	i	-0.48
CC(C)CC(NC(=O)CNC(=O)C1O[C@@H]2OC(C)(C)O[C@@H]2[C@H]2OC(C)(C)O[C@@H]12)C(=O)O (stereo partly drawn)	i	0.12
O=C(Cc1cccs1)NCc1ccccc1	i	2
Cc1sc2nc3c(C(=O)N4CCCC4)cc(C(=O)c4ccccc4O)cn3c(=O)c2c1C	-7.1*	1.4*
Cc1ccc(NC(=O)c2noc3c2CCC3)cc1C	i	0.55
O=C1C=C(NNC(=O)c2cccnc2)CC(c2ccco2)C1 (stereo not drawn)	i	2.5
CC(O)CNc1nc2ccccc2n1-c1ncnc2sc3c(c12)CCC3 (stereo not drawn)	i	-0.57
Cc1ccc(NC(=O)Nc2c(C)[nH]c(=O)[nH]c2=O)cc1Cl	i	-0.63
COc1ccc(S(=O)(=O)N2CCN(c3ccc(F)cc3)CC2)cc1C(=O)N1CCOCC1	i	0.4
CCOc1ccc(S(=O)(=O)N(CC(=O)Nc2cc(C)on2)Cc2ccccc2Cl)cc1	i	-1.3
COCCCNc1nc2c(-c3cccc(C)c3)nnn2c2ccc(Cl)cc12	i	1.1
Cc1ccc(C(=O)Nc2ccc3c(c2)OCO3)cc1Cl	i	0.71
COc1ccccc1N(Cc1cc(=O)[nH]c2ccccc12)C(C)=O	i	-1.1
CC(C(=O)N1CCc2ccccc21)N1CCN(Cc2ccccc2)CC1 (stereo not drawn)	i	0.53
CC(C)C[C@@H]1NC(=O)[C@H](Cc2ccccc2)N(C)C(=O)[C@H](C)NC(=O)c2ccccc2NC(=O)[C@H](Cc2ccc(O)cc2)N(C)C1=O	i	-1.6
Cc1ccc([N+](=O)[O-])cc1N(CC(=O)NCC1CCCO1)S(C)(=O)=O (stereo not drawn)	i	0.02
CCCCOC(=O)C1=C(N)N2C(=O)C(C)SC2=C(C(=O)OCC)C1c1ccc(O)c(OC)c1 (stereo not drawn)	i	-0.65
CC1(C)Cc2ccccc2C(NN=C2CCCC2)=N1	i	-0.5
O=C(Nc1sc2c(c1C(=O)NC1CC1)CCCCCC2)c1ccco1	i	1.5
O=C(CNc1cc(S(=O)(=O)N2CCCC2)ccc1OCC(F)(F)F)Nc1cc(Cl)cc(Cl)c1	i	-0.21

Some of the entries so far, as labelled records.
> Cc1nc2ncnn2c(C)c1Cc1cccc(F)c1
  KCNQ2 block: i
  KCNQ2 block baseline: -1.4

> COCCCNc1nc2c(-c3cccc(C)c3)nnn2c2ccc(Cl)cc12
  KCNQ2 block: i
  KCNQ2 block baseline: 1.1

> CCOc1ccc(S(=O)(=O)N(CC(=O)Nc2cc(C)on2)Cc2ccccc2Cl)cc1
  KCNQ2 block: i
  KCNQ2 block baseline: -1.3

> Cc1ccc([N+](=O)[O-])cc1N(CC(=O)NCC1CCCO1)S(C)(=O)=O (stereo not drawn)
  KCNQ2 block: i
  KCNQ2 block baseline: 0.02

(cont.)
SMILES	KCNQ2 block	KCNQ2 block baseline
CCOCCCN(C(=O)Cn1nnc(-c2ccc(C)o2)n1)C(C(=O)NC1CCCC1)c1ccc(C)o1 (stereo not drawn)	i	0.37
CCOC(=O)c1sc(-c2ccccc2)cc1NC(=O)CSc1nnnn1C	i	0.62
O=C(Nc1ccccc1)C1(c2ccccc2)CC1(Cl)Cl (stereo not drawn)	i	-0.39
COC(=O)[C@]1(C)N[C@H](c2ccc(SC3CCCCC3)c(OC)c2)[C@@H]2C(=O)N(C)C(=O)[C@@H]21	i	1.1
O=C(CSc1nc2c([nH]c3ccccc32)c(=O)n1-c1ccccc1)N1CCOCC1	i	-0.23
CSc1cccc(NC(=O)c2nnn(Cc3ccccc3)c2N)c1	i	1.9
CCN(CCO)C(=O)CC(c1ccccc1)c1cc(Br)ccc1O (stereo not drawn)	i	2.1
Cc1ncc([N+](=O)[O-])n1Cc1ccccc1F	i	-2.8
CCN(C(=O)c1cc2c(s1)-c1ccccc1S(=O)(=O)C2)c1cc(OC)ccc1OC	i	-0.73
COCCn1c(CN(Cc2ccccc2)Cc2ccccc2)nc2c1c(=O)n(C)c(=O)n2C	i	0.7
Cc1ccccc1NC(=O)/C(C#N)=C\c1ccsc1	i	-0.08
CCc1ccc(OCC(=O)Nc2ccc3c(c2)OCCO3)cc1	i	0.01
CC(NCC(=O)Nc1cc(Cl)cc(Cl)c1)c1ccccc1 (stereo not drawn)	i	1.6
Nc1nonc1-n1nnc(C(=O)N/N=C/c2ccco2)c1-c1ccccc1	i	1.1
CC(=O)NC(Cc1c[nH]c2ccccc12)C(=O)NCCc1ccccc1 (stereo not drawn)	i	0.15
CC1(C)C2CCC1(C)C(OCC[N+](C)(C)CC(=O)OC1CCCCC1)C2 (stereo not drawn)	i	-0.41
C=CCOc1ccc2oc(=O)cc(C)c2c1	i	2
COc1cc(/C=C(\C#N)C(=O)Nc2cccc(C(=O)O)c2)ccc1OCc1ccc(F)cc1	i	-0.19
CCc1cc(C(=O)Nc2ccc(OC)nc2)sc1C	i	4
COc1cccc(/C=C/C(=O)OCC(=O)Nc2cccc(S(=O)(=O)N(C)C)c2)c1	i	0.65
N#CC1=C(N)Oc2c(ccc3ccccc23)C1c1ccsc1 (stereo not drawn)	i	-0.05
COc1ccc(NC(=O)CN(Cc2ccccc2)S(C)(=O)=O)cc1	i	-1.4
COc1ccccc1N1CCN(C(=O)c2ccc(N3CCCC3=O)cc2)CC1	i	-1.3
O=C(Cc1csc(Nc2nc(=S)[nH]c3ccccc23)n1)N1CCN(c2cccc(C(F)(F)F)c2)CC1	i	0.21
CCC(C(=O)NCCCN1CCN(CCCNC(=O)C(CC)c2ccccc2)CC1)c1ccccc1 (stereo not drawn)	i	-0.58

Brought forward from above: 5 entries, then new ones.
SMILES	KCNQ2 block	KCNQ2 block baseline
N#CC1=C(N)Oc2c(ccc3ccccc23)C1c1ccsc1 (stereo not drawn)	i	-0.05
COc1ccc(NC(=O)CN(Cc2ccccc2)S(C)(=O)=O)cc1	i	-1.4
COc1ccccc1N1CCN(C(=O)c2ccc(N3CCCC3=O)cc2)CC1	i	-1.3
O=C(Cc1csc(Nc2nc(=S)[nH]c3ccccc23)n1)N1CCN(c2cccc(C(F)(F)F)c2)CC1	i	0.21
CCC(C(=O)NCCCN1CCN(CCCNC(=O)C(CC)c2ccccc2)CC1)c1ccccc1 (stereo not drawn)	i	-0.58
Cc1ccc2c(c1)c1nnc(SCC(=O)NC3CC3)nc1n2C	i	0.07
O=C(NC(=S)NNC(=O)c1ccco1)c1ccccc1	i	0.45
CCOC(=O)C1CCC(CNCc2ccc(Cl)cc2)CC1 (stereo not drawn)	i	0.68
O=C(c1cccs1)N1CCCC(N2CCN(c3cccc(C(F)(F)F)c3)CC2)C1 (stereo not drawn)	i	-1.4
CC(C)Nc1nc(N)c(C(=O)C23CC4CC(CC(C4)C2)C3)s1	i	3
Cc1ccc(N2CCN(S(=O)(=O)c3ccc4oc(=O)ccc4c3)CC2)cc1Cl	i	-0.34
O=C(CSc1nc2ccccc2c(=O)n1-c1ccc(F)cc1)Nc1cc(S(=O)(=O)N2CCOCC2)ccc1Cl	i	-0.95
O=c1c2c(nc3nc(NCc4cccc5ccccc45)[nH]n13)CCC2	i	1.3
O=C(COc1ccc(S(=O)(=O)N2CCCC2)cc1Cl)NCc1ccco1	i	0.04
Cc1ccc(S(=O)(=O)N2CCCN(S(=O)(=O)C3CCS(=O)(=O)C3)CC2)cc1 (stereo not drawn)	i	0.03
O=C(N/C(=C\c1ccccc1)C(=O)N1CCOCC1)c1ccc(Br)o1	i	0.31
Cc1ccc(S(=O)(=O)N/N=C\c2ccc3c(c2)OCO3)cc1C	i	-0.65
CC(C)c1ccccc1NC(=S)NC1CCN(Cc2ccccc2)CC1	i	2.3
Cc1ccnc(N2CCN(C(=O)CSc3nc4ccccc4nc3N3CCCCC3)CC2)c1	i	-2.7
CC(C)c1ccccc1OCC(O)CN(CC(O)COc1cccc2ccccc12)C(C)C (stereo not drawn)	-6.3*	0.95*
C=C(C)CN1CCN(c2ccc(N3C(=O)CCCC3=O)cc2[N+](=O)[O-])CC1	i	0.04
C=CCn1c(Cc2cccs2)nnc1SCC(=O)c1ccc(F)cc1	i	-1.2
O=C(COC(=O)CC(c1ccccc1)c1ccccc1)NCc1ccc(Cl)cc1	i	1.1
CC(C)(C)NC(=O)CN(C(=O)C(=O)Nc1ccc2c(c1)OCCO2)C(C)(C)C	i	-0.27
Cc1cccc(NC(=O)c2ccc(C(=O)c3ccccc3)o2)c1	i	-0.86
CCC[C@@H](CN[C@@H](CNC)C(C)C)NCCCCc1ccccc1	i	-0.5
CCCCn1c(N)c(N(CCC(C)C)C(=O)c2cc(-c3ccco3)nc3ccccc23)c(=O)[nH]c1=O	i	3.6
Cc1ccccc1-n1ncc2c1CC(C)(C)CC2NC(=O)C1=CC(=O)CC(C)(C)O1 (stereo not drawn)	i	1.6
Cc1noc(C)c1COc1ccc(C(=O)OCC(=O)Nc2ccc3c(c2)OCO3)cc1	i	-0.07
COc1cccc(OCCN2CCN(c3ncnc4c3cnn4-c3ccccc3)CC2)c1	i	-0.37

4 compounds drawn at random from those above:
SMILES	KCNQ2 block	KCNQ2 block baseline
Cc1ccnc(N2CCN(C(=O)CSc3nc4ccccc4nc3N3CCCCC3)CC2)c1	i	-2.7
Cc1ccccc1-n1ncc2c1CC(C)(C)CC2NC(=O)C1=CC(=O)CC(C)(C)O1 (stereo not drawn)	i	1.6
Cc1cccc(NC(=O)c2ccc(C(=O)c3ccccc3)o2)c1	i	-0.86
O=C(COC(=O)CC(c1ccccc1)c1ccccc1)NCc1ccc(Cl)cc1	i	1.1

Next part.
SMILES	KCNQ2 block	KCNQ2 block baseline
COc1ccc(OC)c(C2=Nn3c(nnc3-c3cc(OC)c(OC)c(OC)c3)SC2)c1	i	0.78
CCN(CC)S(=O)(=O)c1ccc(Cl)c(C(=O)Nc2cc(C)nn2-c2ccccc2)c1	i	0.64
CC(=O)OCC(CCn1cnc2cnc(N)nc21)COC(C)=O	i	-0.23
COc1ccc(CCN(Cc2cc3cc(C)cc(C)c3nc2Cl)C(=O)C2CC2)cc1	-8.6*	0.09*
CCc1sc(N(C(=O)Cc2ccccc2)c2cccc(F)c2)nc1-c1ccc(C)cc1	i	-1.5
O=C(C1CCC(CNc2nc(=S)[nH]c3ccccc23)CC1)N1CCN(c2ccc(F)cc2)CC1 (stereo not drawn)	i	-1.7
CC1CCN(Cc2c(O)ccc3c(=O)c(-c4nc5ccccc5s4)c(N)oc23)CC1	i	-1.8
O=C(CN(Cc1ccc(F)cc1)C(=O)CNS(=O)(=O)c1ccc(F)cc1)NCC1CCCO1 (stereo not drawn)	i	0.38
CCCCN(CCCC)Cc1cc2ccccc2c2c1COC2	i	0.48
COC(=O)c1cccc(CSc2nnc(-c3ccco3)n2-c2ccccc2)c1	i	-0.05
Cc1ccc(CN2CCC(=O)N2)cc1	i	-0.77
O=S(=O)(c1cccc(NC(=S)N2CCN(c3ccccc3F)CC2)c1)C(F)F	i	0.04
COc1cc(/C=N/NC(=O)c2ccccn2)ccc1OC(=O)c1ccc(Br)cc1	i	-1.2
O=C(CCCOc1ccccc1)OCn1nnc2ccccc2c1=O	i	-0.01
CN(C(=O)c1ccc2c(=O)n3c(nc2c1)CCCCC3)c1cccc(Cl)c1	i	-1.9
CCOc1ccccc1NC(=O)COC(=O)c1ccccc1SCC(=O)N1CCCC1	i	0.66
Cc1nc2ccc(NC(=O)c3ccc([N+](=O)[O-])cc3[N+](=O)[O-])cc2s1	i	-0.81
COc1ccc(Nc2c3c(nc4ccccc24)CCC3)cc1	i	-0.25
Cc1ccc(SCCN2CCC(C(C)(C)C)CCC2=O)cc1 (stereo not drawn)	i	-0.71
CN1CCN(CCCCOc2ccccc2C=O)CC1	i	-2.6
Cc1ccc(CC2SC(N)=NC2=O)cc1 (stereo not drawn)	i	0.58
CC(C)CC(COCc1cccc(C(F)(F)F)c1)N1CCN(C(=O)c2cccc(C(F)(F)F)c2)CCC1=O (stereo not drawn)	i	1.6
C/C(=N\NC(=O)C1CC1c1ccccc1)c1ccc(C)s1 (stereo not drawn)	i	-0.71
Cc1ccc(C)c2[nH]c(=O)c(CCNC(=O)c3ccc(S(=O)(=O)N(C)C)cc3)cc12	i	0.26
COc1ccc(NC(=O)CSc2ccc3c(c2)OCCO3)cc1OC	i	-0.92
(further entries)
SMILES	KCNQ2 block	KCNQ2 block baseline
COc1cccc(-c2cc(C(=O)Nc3c(C)nn(Cc4ccccc4C)c3C)no2)c1	i	-0.26
COC(=O)c1c(-c2ccccc2)csc1NC(=O)CSc1ncnc2sc(C)c(C)c12	-5.6*	1.1*
CCC(C)OC(=O)C1=C(C)NC2=C(C(=O)C(C(=O)OC)C(C)C2)C1c1ccc(N(C)C)cc1 (stereo not drawn)	i	1.7
COc1cc(-c2nc(CN3CCCN(C(=O)c4ccco4)CC3)c(C)o2)ccc1F	i	0.29
C=C1CCN([C@@H](Cc2ccccc2)C(=O)Nc2ccc(OC)cc2)S(=O)(=O)c2ccccc21	i	-1.6
COc1ccc(-c2cc([C@H]3[C@H]4C=CC[C@@H](C)[C@@H]4C(=O)N3Cc3ccccc3)ccc2F)cc1OC	i	1.2
O=C(COc1ccccc1)N(CCc1ccccc1)c1nc(-c2ccc(F)cc2)cs1	i	0.33
CN1CCN(NC(=O)c2cn(-c3ccccc3)nc2-c2ccc(OC(F)F)cc2)CC1	i	-0.4
O=C(CSc1ncnc2sccc12)Nc1ccccc1	i	-0.77
COc1ccc(N2CCN(c3c(S(=O)(=O)c4ccccc4)cnc4ccc(OC)cc34)CC2)cc1	i	0.24
O=C(O)c1ccc2c(c1)C(=O)N(NC(=O)c1ccccc1)C2=O	i	0.61

Compound activity: PubChem, Johns Hopkins Ion Channel Center
